# Sa RN4220 lethal: kills Staphylococcus aureus RN4220. S. aureus RN4220 growth, OD600, 16 h. hit rate 0.33% among 330,000. AID 1259311. inhibition, % (concentration not given with the values);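 active = z-score of -3 or lower and OD600 up to 0.18 on both plates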;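 also: plate controls were untreated cells for no effect and reference antibiotic for full effect; stock transfer was 100 nL into about 80 µL; one replicate is shown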
# ugtP null kill: compounds lethal to S. aureus RN4220 ugtP deletion mutant | OD600 growth, 16 h; some inactives read as strong as hits | growth inhibition, % (concentration not given with the values) | hit rate 0.54% among 330,000;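 active = z-score under -3 and OD600 up to 0.15 on both plates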;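 also: plate controls were untreated wells for no effect and antibiotic for full effect; wells of about 80 µL received 100 nL stock; the first replicate is given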
# PrP 5UTR inh: suppresses PrP 5' UTR mRNA reporter expression; cell-based PrP 5' UTR mRNA reporter, plate reader; inhibition, % (test concentration not listed); hit rate 0.35% among 340,000;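 active = every replicate at 50% or more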;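 also: 0 = median of the neutral control wells; tested in H4 reporter cells; numbers are from one replicate; inactives centre near -14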
# Mtb hypoxia inh: Mtb hypoxia fluorescent reporter inhibition. M. tuberculosis hypoxia-regulated fluorescent reporter, fluorescence. fluorescence inhibition, % (test concentration not listed). hit rate 0.1% among 300,000. AID 1159583;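 active = 35 to 45% if threefold the growth effect, above 45% if 1.5-fold the growth effect; inactive = the rest, general growth blockers included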;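 also: wells of about 50 µL received 100 nL stock; 0% = vehicle wells and 100% = reference inhibitor wells; whole bacteria with a GFP reporter of the hypoxia response; strong numbers were not always called active; many hits fall short of the cut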
# BJeLR viability: kills HRASV12-expressing BJeLR cells | BJeLR (HRASV12) viability, CellTiter-Glo ATP luminescence, 48 h; reference of the scale not given here | inhibition, % (concentration not given with the values) | hit rate 0.17% among 300,000;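 active = replicate mean above 50%; inconclusive = above 50% but judged a plate artefact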;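 also: 50 nL library stock added to about 25 µL; numbers are from one replicate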
# Autofluor counter: counter-screen for toxin protease inhibitors: compound fluorescence; compound autofluorescence counterscreen, microsphere flow cytometry; stronger effect = higher value; fluorescence intensity (no concentration beside the values); hit rate 3.1% among 360,000;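 active = at least 3 SD above the mean of all compounds, about 16000 in these data; inconclusive = too few beads counted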;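 also: 100 nL of 1 mM stock went into each well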
# Mtb hypoxia inh growth: also measured in Mtb hypoxia inh; calls as there; growth inhibition, %; measured here: M. tuberculosis growth (absorbance);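 0% = vehicle and 100% = reference antibiotic; read after six days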
# Starred values were filed as active, the others as inactive; u = inconclusive; x = no result given.
Compound	PrP 5UTR inh	BJeLR viability	ugtP null kill	Sa RN4220 lethal	Autofluor counter	Mtb hypoxia inh	Mtb hypoxia inh growth
O=C(Nc1ccc(Cl)cc1)N(Cc1nc2ccccc2c(=O)[nH]1)Cc1cccs1	-15	-4	-12	30	10199	-11	5
CCOc1ccc(NC(=O)C(C)N2C(=O)c3ccccc3S2(=O)=O)cc1 (centres undefined)	-11	5	2	3.0	6120	16	30
O=C(N/N=C/c1cccnc1)c1cccc(S(=O)(=O)N2CCCC2)c1	-16	5	x	x	4471	x	x
CCOC(=O)c1sc2nc(C)cc(-c3ccccc3)c2c1N	-15	-10	-1	7.9	2098	-5	2
Cc1nc(N)sc1-c1nnc(SCC(=O)Nc2ccccc2C(F)(F)F)n1C	-3	4	1	0.5	22790*	-3	-2
COc1cccc(N2C(=O)NC(=O)/C(=C/c3ccc4c(c3)Cc3ccccc3-4)C2=O)c1	-15	6	11	12	3764	6	3
COc1cccc(-n2nnnc2SCC(=O)Nc2cccc(C)n2)c1	-28	-5	13	33	8546	1	7
Cc1coc2c(C)c3oc(=O)c(CCC(=O)NCCN4CCOCC4)c(C)c3cc12	-3	9	-5	7.9	4577	x	x
Cc1nc(N2CCN(c3ccccc3)CC2)[nH]c(=O)c1CCC(C)C	4	5	3	6.7	3371	-2	-4
C#CCOCCOCCOCCNc1nc(N2CCN(C(=O)[C@H](C(C)C)n3cc(CCO)nn3)CC2)nc(N2CCN(C(=O)[C@H](CCCCN)n3cc(CCCC)nn3)CC2)n1	-13	0	x	x	4508	x	x
CCCNC(=O)CCn1nc(-c2ccccc2)c2ccccc2c1=O	-11	3	10	0.6	3005	11	3
Cc1ccc(N2C(=O)C3NN=C(C(=O)OCc4ccccc4)C3C2=O)cc1 (centres undefined)	-2	-15	-4	6.5	6633	5	3
COC(=O)NN=Cc1ccc(-c2cc(Cl)c(Cl)cc2Cl)o1	x	x	-8	5.7	x	7	10
c1ccc(CN2CCN(CCOCCOc3cccc4ccccc34)CC2)cc1	-13	4	x	x	4509	x	x
Cc1csc2ncc(C(=O)NC(C)c3ccccc3)c(=O)n12 (centres undefined)	-32	-8	13	19	5725	-7	-6

# More structures follow:
Compound	PrP 5UTR inh	BJeLR viability	ugtP null kill	Sa RN4220 lethal	Autofluor counter	Mtb hypoxia inh	Mtb hypoxia inh growth
O=C(c1cccn2c(=O)c3ccc(Cl)cc3nc12)N1CCN(Cc2ccc3c(c2)OCO3)CC1	x	-6	2	5.7	8578	-4	13
CCCCN(C)CCCNC(=O)Cn1c(=O)sc2ccccc21	-8	2	2	0.4	4170	2	3
COc1ccc(/C=C/C(=O)NCCSCc2ccco2)cc1	4	8	12	0.5	2142	-1	3
O=c1[nH]c(=S)c2[nH]c(=S)n(-c3ccccc3)c2[nH]1	3	x	-4	0.5	2873	-8	-4
CN1C(=O)C(=Cc2cccnc2)C(=O)N(C)C1=O	-7	-7	4	2.2	5540	-12	-5
Nc1cccc2c1C(=O)N(C(=O)c1cccc(S(=O)(=O)N3CCCC3)c1)C2=O	-16	0	4	0.2	3063	x	x
CCOc1ccc(/C=C/c2nc(C#N)c(NCCCN(C)C)o2)cc1	-19	5	23	-2.4	3570	13	14
CCc1ccc(NC(=O)c2cnc3scc(C)n3c2=O)cc1	-79	11	9	-8.3	5877	7	7
COc1cccc(N(CC(=O)NN=C(C)c2cccs2)S(C)(=O)=O)c1	x	x	0	1.5	x	15	-1
Cc1ccc(O)c(NC(=O)COc2cc(C)ccc2C)c1	-28	-13	8	14	2387	x	x
CCOC(=O)c1cc2sc(C)cc2n1CC(=O)N1CCOCC1	-11	3	2	3.5	8632	-1	3
O=S(=O)(c1ccc(Cl)cc1)N1CCN=C1SCc1cccc(Cl)c1	-60	-12	1	4.6	2120	10	2
CCc1ccc(NC(=O)CSc2nnc(CNC(=O)c3ccco3)o2)cc1	-14	4	2	2.1	7194	7	5
CCOC(=O)/C=C/C(=O)OCC(=O)Nc1ccc(Cl)cn1	-7	-4	x	x	3418	x	x
Cc1cc(C)cc(NC(=O)CCn2ccnc2)c1	-1	-3	0	3.2	5891	14	1

# (more compounds)
Compound	PrP 5UTR inh	BJeLR viability	ugtP null kill	Sa RN4220 lethal	Autofluor counter	Mtb hypoxia inh	Mtb hypoxia inh growth
COc1ccccc1Nc1nc(N)nc(CSc2nccc(C)n2)n1	-10	3	0	4.1	4039	2	6
COc1ccc(Cn2c(N)c(C#N)c3nc4ccccc4nc32)cc1OC	3	5	8	2.9	3784	x	x
COC(=O)c1cscc1S(=O)(=O)Cc1ccccc1	-8	0	6	3.2	x	9	1
CCCC(C(=O)Nc1ccc(S(=O)(=O)Nc2ncccn2)cc1)c1ccccc1 (centres undefined)	-3	-5	8	8.3	6375	7	9
COc1ccccc1NC(=O)c1ccc(NC(=O)CN2CCN(C(=O)c3ccco3)CC2)cc1	-20	-11	1	3.5	3289	9	12
CC(C)N1CC(COc2ccc(Br)cc2)OC1=O (centres undefined)	-10	2	9	6.3	2863	5	-4
COc1ccccc1NS(=O)(=O)c1ccc(Cl)cc1	-19	-2	1	4.0	11083	8	-1
Cc1nc(C(C)(C)O)n(-c2ccccc2)n1	-7	-2	7	4.0	3160	1	8
Fc1ccc(-c2ccc(CNCc3ccccn3)o2)cc1	-29	-8	17	5.5	3635	13	14
O=C(CN1CCCCCC1)Nc1ccccc1[N+](=O)[O-]	-44	0	13	6.4	u	-3	5
COc1cc(CC(=O)OCC(=O)Nc2cc([N+](=O)[O-])ccc2Cl)cc(OC)c1OC	-5	-14	8	-4.5	2455	7	11
COc1ccc(C2CC(c3ccc(C)cc3)=NN2C(=O)c2ccccc2)cc1 (centres undefined)	1	-7	-21	-4.6	3931	5	7
CCOC(=O)c1ccc(NNC(C)=O)c([N+](=O)[O-])c1	-12	-5	-5	7.4	2097	14	2
Cc1cccc(C)c1NC(=O)Cn1nc(-c2ccccc2)nc1-c1ccccc1	-23	4	1	3.7	u	0	-2
CCC(=O)NCCCOc1ccccc1	-16	5	5	2.3	5535	9	15

# Remaining list, next part:
Compound	PrP 5UTR inh	BJeLR viability	ugtP null kill	Sa RN4220 lethal	Autofluor counter	Mtb hypoxia inh	Mtb hypoxia inh growth
O=C(c1cccc(Br)c1)c1conc1C(=O)c1ccco1	-12	0	5	5.7	2607	14	7
Cn1ccc(C(=O)N/N=C/c2ccccc2[N+](=O)[O-])n1	-31	2	x	x	5594	x	x
O=C(OCCN=C1NS(=O)(=O)c2ccccc21)c1cccnc1	-20	-2	x	x	2451	x	x
CCn1c(SCC(=O)Nc2cccc(O)c2)nc2c1c(=O)n(C)c(=O)n2C	-10	-2	-5	3.8	3080	-8	10
O=C(COc1ccc(F)cc1)N(Cc1cccc(Br)c1)C1CCS(=O)(=O)C1 (centres undefined)	-4	-7	-1	2.9	5284	-3	7
CCOC(=O)/C(=N\Nc1ccc(Cl)cc1)c1csc(Nc2ccccc2)n1	-9	2	x	x	4800	x	x
Cc1nnc(SCC(=O)Nc2ccc(Cl)cn2)[nH]c1=O	-4	-6	-6	1.0	4405	x	x
CC1CCN(C(=O)/C=C/c2ccc(C(C)(C)C)cc2)CC1	-26	-4	x	x	8576	x	x
COc1ccccc1CNC(=O)c1c(-c2ccccc2)nn(-c2ccccc2)c1C	-10	-5	10	-1.6	3938	x	x
CN1C(=O)C(C)(C)c2cc(S(=O)(=O)NCc3ccc(C(=O)NCc4ccco4)cc3)ccc21	-12	2	14	3.3	4690	7	7
Cc1ccsc1C=NNC(=O)Cn1nc(C)c([N+](=O)[O-])c1C	x	x	-1	-0.1	x	3	14
CSc1ccccc1NC(=O)COC(=O)Cc1ccsc1	-11	x	-7	-5.5	3662	-2	9
Brc1cccc(CNc2nc3ccccc3n2CCN2CCOCC2)c1	-16	2	-2	-0.2	4520	11	2
COC(=O)[C@@]1(C)[C@H]2C(=O)N(Cc3ccccc3)C(=O)[C@H]2[C@H]2CN=C(SC)N21	-22	x	-8	-4.2	3610	-12	-2
S=C(NCc1ccncc1)Nc1ccc(Br)cc1Cl	-11	7	6	3.1	5254	7	11

# Among those listed so far, two have a cyano group.
Compound	PrP 5UTR inh	BJeLR viability	ugtP null kill	Sa RN4220 lethal	Autofluor counter	Mtb hypoxia inh	Mtb hypoxia inh growth
CCOc1ccc(/C=C/c2nc(C#N)c(NCCCN(C)C)o2)cc1	-19	5	23	-2.4	3570	13	14
COc1ccc(Cn2c(N)c(C#N)c3nc4ccccc4nc32)cc1OC	3	5	8	2.9	3784	x	x

# Later entries:
Compound	PrP 5UTR inh	BJeLR viability	ugtP null kill	Sa RN4220 lethal	Autofluor counter	Mtb hypoxia inh	Mtb hypoxia inh growth
Nc1c(C(=O)N2CCCCC2)sc(=S)n1-c1ccccc1	-44	-9	9	11	21338*	9	9
O=C(Nc1cccc(F)c1)NC1CC2CCCC(C1)N2C1CC1 (centres undefined)	0	0	2	-1.8	3706	-1	-1
COc1ccc(OC)c(NC(=O)C2CCCN(S(=O)(=O)c3cccc4nsnc34)C2)c1 (centres undefined)	0	6	7	0.6	3345	12	5
CC(OC(=O)c1cc2c(ccc3ccccc32)oc1=O)c1nc2ccccc2s1 (centres undefined)	-7	-12	-10	9.4	2041	13	10
CCN(CC)CCNC(=O)c1c(C)n(-c2ccccc2)c2cc(Br)c(OC)cc12	0	0	5	4.9	3260	16	15
COc1ccc(C(=O)C2CCCN(Cc3ccc4nonc4c3)C2)cc1OC (centres undefined)	-25	-2	6	16	4394	-6	-4
COc1ccc(C(C(=O)NC2CCCC2)N(C(=O)c2snc(-c3ccc(F)cc3)c2N)c2ccccc2)cc1 (centres undefined)	-18	3	2	2.6	20660*	5	7
CCOc1ccc(N(C)S(=O)(=O)c2c[nH]c(C(=O)OC)c2)cc1	-25	-1	-2	5.4	5790	6	4
Cc1cccc(C2CC(c3ccccc3)Nc3ncnn32)c1 (centres undefined)	-9	-2	7	2.8	6129	x	x
O=C(Cn1nnc(-c2ccccc2NC(=O)C2CC2)n1)NC1CCCCC1	-12	-10	3	-3.9	6780	5	0
CC(=O)C1C(c2cccc(Oc3ccccc3)c2)NC(=O)NC1(O)C(F)(F)F (centres undefined)	-24	10	3	5.8	8114	5	1
CCC(C(=O)Nc1cc(C)nn1-c1nc(C)cc(C)n1)c1ccccc1 (centres undefined)	11	0	-11	1.6	4458	-5	-3
CCO[C@@H]1OC(C(=O)NCc2ccccc2)=C[C@H](C)[C@H]1CCCO	-2	-18	x	x	3824	x	x
CNC(=O)C12CCC(C)(c3nc4cc(C)c(C)cc4nc31)C2(C)C (centres undefined)	-22	-4	-1	3.2	23268*	4	1
CCc1ccc(NC(=O)CN(N=Nc2nonc2C)c2nonc2C)cc1	-28	4	5	4.2	3326	2	4

# Look-ups from above.
# Mtb hypoxia inh, `O=C(Cn1nnc(-c2ccccc2NC(=O)C2CC2)n1)NC1CCCCC1` → 5
# BJeLR viability, `CC(=O)C1C(c2cccc(Oc3ccccc3)c2)NC(=O)NC1(O)C(F)(F)F` (centres undefined) → 10

# The listing continues:
Compound	PrP 5UTR inh	BJeLR viability	ugtP null kill	Sa RN4220 lethal	Autofluor counter	Mtb hypoxia inh	Mtb hypoxia inh growth
CC(C)N1CCc2c(sc(NC(=O)CCc3ccccc3)c2C(N)=O)C1	-47	8	12	3.7	5149	13	6
Cc1ccc(-c2c(C(=O)N/N=C/c3ccncc3)nnn2-c2nonc2N)cc1	-2	8	x	x	4202	x	x
COc1cc(C(=O)Nc2ccc(Nc3ccccc3)cc2)cc(OC)c1OC	-9	-5	11	-5.7	3409	1	13
CCN(CC(=O)NCc1cccs1)C(=O)c1ccc(OC)c(S(=O)(=O)N2CCOCC2)c1	-50	1	5	4.0	u	0	6
CC(=O)C[C@H](O)CC(=O)[C@H]1OC(=O)CCCCCCc2ccccc21	-13	x	8	3.6	2899	-5	-20
CCCC1C(=O)Nc2ccccc2N1C(=O)c1cccc(C)c1 (centres undefined)	1	5	1	1.8	3157	9	5
Cc1cccc(NC(=O)C23CCC(C)(C2Br)C3(C)C)c1 (centres undefined)	-17	-1	-22	1.1	8755	-1	-9
NCCSC1CC(=O)N(c2ccc(Cl)c(Cl)c2)C1=O (centres undefined)	-12	-2	-7	-2.8	4058	-3	19
COC(=O)c1scc(C)c1NC(=O)c1ccccc1F	-34	3	12	4.2	3659	6	4
C/C=C(/C)C(=O)Nc1cccc(C2=NOC3(C2)C[C@@H](C(N)=O)N(C(=O)CC)C3)c1 (some centres undefined)	-22	-6	x	x	3858	x	x
Cc1nnc(NC(=O)CSc2nnc(CNC(=O)c3ccccc3)o2)s1	1	2	2	2.1	5697	1	-3

# Bioassay records: PubChem, several laboratories
